Screening data as filed in PubChem BioAssay.
YopH PTP inh: YopH (Yersinia) phosphatase inhibition | inhibition, %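 (about 10 µM by stock and volumes)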 | fluorescence Ex485/Em525 | hit rate 0.16% among 140,000;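 active = inhibition of 50% or more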;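 also: controls were vehicle for no effect and minimum signal wells for full effect; inactives centre near -20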
Arbovirus anti: arbovirus infection inhibition; AID 1251; hit rate 0.37% among 200,000; inhibition, % at 10 µM; arbovirus infection cell-based antiviral screen;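 active = inhibition from about 30%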;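 also: bluetongue infection of BSR cells; cell survival read as ATP light after 72 h; 0% = infected wells without compound and 100% = uninfected wells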
Mtb betalactam: beta-lactam sensitization of Mtb H37Rv. AID 434955. M. tuberculosis H37Rv growth with meropenem, percent inhibition; hits of this screen are not shown here. inhibition, % at 25 µM. hit rate 0.27% among 330,000;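 active = about 74% or more and at least 40 points above the plate without the antibiotic, then above 30% in a dose series; inconclusive = first-round hits that could not be retested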;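 also: growth measured after seven days incubation then overnight dye step; 0% = bacteria only wells and 100% = bacteria with antibiotic; twin plates without the antibiotic show which effects depend on it; some results filed as inactive read as strong as hits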
Mtb H37Rv: M. tuberculosis H37Rv growth inhibitors, H37Rv strain (AID 1626); M. tuberculosis H37Rv growth inhibition; higher % means a stronger effect; inhibition, % at 10 µM, or IC50 in µM where a hit was titrated; hit rate 0.95% among 220,000;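 active = confirmed in a dose series; inconclusive = inhibition above 80% but not taken into the dose series; inactive = below 80% or under 30% at every dose of the series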;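 also: bacteria incubated seven days before Alamar blue readout; 0% = bacteria only wells and 100% = bacteria with antibiotic wells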
RecA intein inh: inhibitors of M. tuberculosis RecA intein splicing. cell-free RecA intein splicing, fluorescence. inhibition, %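 (about 9 µM by stock and volumes)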. hit rate 0.75% among 290,000. AID 2221; in the data active = inhibition above about 30%; inconclusive = no clear call, values can overlap the other calls;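 also: 0% = vehicle wells and 100% = reference inhibitor control wells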
Target sequence (P9WHJ3 whole entry, looked up): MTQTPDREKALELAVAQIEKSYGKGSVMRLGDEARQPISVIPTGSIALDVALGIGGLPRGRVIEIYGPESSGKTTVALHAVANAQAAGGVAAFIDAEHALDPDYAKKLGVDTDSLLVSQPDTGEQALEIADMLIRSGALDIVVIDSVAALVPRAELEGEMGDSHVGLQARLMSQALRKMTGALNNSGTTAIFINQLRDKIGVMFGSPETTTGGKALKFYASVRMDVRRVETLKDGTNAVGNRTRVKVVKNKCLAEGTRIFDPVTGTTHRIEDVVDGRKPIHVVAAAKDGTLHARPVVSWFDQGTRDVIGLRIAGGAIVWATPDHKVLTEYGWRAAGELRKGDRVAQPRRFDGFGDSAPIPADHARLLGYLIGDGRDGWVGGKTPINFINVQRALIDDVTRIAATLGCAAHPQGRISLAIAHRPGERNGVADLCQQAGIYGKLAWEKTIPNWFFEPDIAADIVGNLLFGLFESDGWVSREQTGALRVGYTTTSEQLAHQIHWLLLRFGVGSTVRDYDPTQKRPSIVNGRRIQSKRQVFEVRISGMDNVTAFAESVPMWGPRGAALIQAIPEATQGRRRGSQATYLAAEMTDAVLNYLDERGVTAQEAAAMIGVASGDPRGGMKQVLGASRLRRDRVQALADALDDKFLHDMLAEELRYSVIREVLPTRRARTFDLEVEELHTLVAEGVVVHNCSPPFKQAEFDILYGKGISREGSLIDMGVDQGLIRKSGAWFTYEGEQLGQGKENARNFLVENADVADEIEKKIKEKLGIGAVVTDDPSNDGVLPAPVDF
Arbovirus anti repeat: further read-out of Arbovirus anti, marked with its call; inhibition, %; measured here: 10K subset replicate screen; many hits read low in the repeat;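 first of two repeat runs on a subset; 0% = infected and 100% = uninfected wells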
Starred values were filed as active, the others as inactive; i = inactive; ? = inconclusive; / = not tested or not shown. These rows are one share of the data; the hit share may differ from the screen's.

SMILES	YopH PTP inh	Arbovirus anti	Mtb betalactam	Mtb H37Rv	RecA intein inh	others
Cc1cc(C)c(NC2=NS(=O)(=O)c3ccccc32)c(C)c1	-1	9	-11	3%	1.3
COc1ccc(OCC(=O)N2CCN(c3nnc(-c4ccccc4)c4ccccc34)CC2)cc1	-41	-30	8	2%	7.9
Cc1cc(C)c(C(=O)N2CCCC(CNS(=O)(=O)c3cccs3)C2)o1 (stereo unspecified)	/	/	-14	/	4.8
Cc1ccc(C)c(OCCCCCn2ccnc2)c1	-26	-2	20	-10%	2.8
CCc1nc(CNC(=O)C2CCC(=O)N(CCc3cccc(F)c3)C2)no1 (stereo unspecified)	/	/	-2	/	-0.9
COc1ccc(CCNC(=O)CN2C(=O)NC(Cc3c[nH]c4ccccc34)C2=O)cc1 (stereo unspecified)	/	/	-1	/	-6.5
Cc1nn(-c2ccccc2)c(C)c1/C=N/NC(=O)c1cc(C23CC4CC(CC(C4)C2)C3)[nH]n1	24	-15	97	?	-0.6
COc1ccc(S(=O)(=O)NC(C(=O)NCCc2ccccn2)C(C)C)cc1 (stereo unspecified)	/	2	-7	-3%	3.1
O=C(Nc1ccccc1OC(F)F)c1cccc(S(=O)(=O)N2CCCC2)c1	/	/	-1	/	1.5
COc1ccc(/C=C(/C(=O)c2ccc(Cl)cc2Cl)n2cncn2)cc1	-1	16	5	-3%	2.9
Cn1c(N)c(C(=O)CSc2nc(N)cc(=O)[nH]2)c(=O)n(C)c1=O	-9	4	5	-3%	3.1
NC(=O)CSc1nccn1Cc1ccc(Cl)cc1	/	2	-6	1%	-6.5
O=C(NCC(c1ccco1)N1CCCCC1)C(c1ccccc1)c1ccccc1 (stereo unspecified)	/	4	0	2%	0.9
CN(C(=O)c1cnc(N2CCN(c3ncccn3)CC2)c2ccccc12)c1ccc(Cl)cc1	-42	-15	55	/	3.4
Nc1ccc(C(=O)OCCc2ccccc2)cc1	/	/	59	/	1.2
Cc1cc(C)c2[nH]c(=O)c(CN(CC3CCCO3)C(=O)C3CCCO3)cc2c1 (stereo unspecified)	-24	-2	35	-1%	1.7
Cc1c(C)n(Cc2ccccc2)c2ncnc(NCCN(C)C)c12	/	/	-5	/	1.4
COc1ccc(OC)c(C2C(C(=O)c3ccc(C)o3)=C(O)C(=O)N2c2cc(C)on2)c1 (stereo unspecified)	/	/	-2	/	-0.4
O=C(NCCn1cc(SCc2ccc(F)cc2)c2ccccc21)c1ccccc1F	-12	-23	8	9%	-0.3
CCc1nc2ccccc2c(C(=O)OCC(=O)C(C)(C)C)c1C	/	-9	17	13%	1.2
O=S(=O)(c1ccccc1)N1CCN(C(c2ccccc2)c2ccc(OC(F)(F)F)cc2)CC1 (stereo unspecified)	/	/	3	/	0.3
Cc1ccccc1NC(=S)N(Cc1cccnc1)Cc1ccccc1Cl	/	16	2	-1%	2.5
COc1ccc(CCNC2CC(=O)N(N(C)C)C2=O)cc1OC (stereo unspecified)	/	-2	5	-9%	2.0
N#CCSc1nnc(Cc2cccc3ccccc23)n1C1CCCCC1	-23	9	-3	4%	7.8
CCn1c(=NC(=O)c2cccc(N3C(=O)CCC3=O)c2)sc2c(C)ccc(OC)c21	/	/	66	-7%	-1.9
COc1cc(C2/C(=C(\O)c3cc(C)ccc3C)C(=O)C(=O)N2CCN(C)C)ccc1O (stereo unspecified)	-39	1	-2	6%	-3.8	Arbovirus anti repeat=1
COC(=O)c1ccc(CSc2nc3sc4c(c3c(=O)n2C)CCCC4)o1	-33	6	2	3%	0.6
CCOC(=O)Cc1csc(NC(=O)CSc2ccc(Br)cc2)n1	-28	15	9	6%	5.7
CCOC(=O)C(C)On1c(-n2nc(C)cc2C)nc2ccccc2c1=O (stereo unspecified)	/	/	93	/	-1.3
O=C(CN1C(=O)/C(=C2\SC(=S)N(C3CCS(=O)(=O)C3)C2=O)c2ccccc21)Nc1ccc(F)cc1 (stereo unspecified)	/	/	30	-7%	1.7
Cc1ccc2nccc(C(=O)N3CCCC(Nc4ccc(C)c(C)c4)C3)c2c1 (stereo unspecified)	/	/	10	/	0.0
NNc1cc([N+](=O)[O-])cc2c1C(=O)N(Cc1ccccc1)S2=O (stereo unspecified)	/	2	1	-10%	-1.9
COc1ccc2nc(N3C(=O)/C(=C/c4ccc(Cl)cc4)NC3=S)sc2c1	-7	-13	/	?	/
CCCCN(C(=O)C1CC(=O)N(CCc2ccc(OC)c(OC)c2)C1)c1c(N)n(CCCC)c(=O)[nH]c1=O (stereo unspecified)	/	/	-1	/	-3.5
COc1ccc(/C=N/NC(=O)c2ccc(Cl)cc2)cc1COC(C)=O	-4	-8	3	6%	-2.4
Cc1ccc(SCCNC(=O)C(C)C)cc1	-14	-6	8	-1%	1.7
COc1ccc(C(=O)C2CCCN(Cc3cccc(C)n3)C2)c(OC)c1 (stereo unspecified)	/	/	10	-9%	-1.1
CCCCNCc1cc2ccccc2o1	/	/	-7	-3%	0.5
O=S(=O)(c1ccc(F)c(F)c1)N1CCN(c2ncccn2)CC1	/	/	-4	/	0.8
COc1ccccc1CNC(=O)c1ccc(OCC2CCCO2)cc1 (stereo unspecified)	-17	1	0	3%	-2.5
CCOC(=O)COc1coc(CN2CCN(c3cccc(Cl)c3)CC2)cc1=O	/	/	92	/	-1.8
COC(=O)c1cc(NS(=O)(=O)c2ccc(NCc3cccnc3)c([N+](=O)[O-])c2)cc(C(=O)OC)c1	-37	-5	8	-6%	7.9
O=C(Nc1ccc(F)cc1)N(CCCN1CCOCC1)Cc1cc2cc3c(cc2[nH]c1=O)OCO3	-23	7	-11	/	-0.6
S=C(NCc1ccccc1)N1CCN(Cc2ccc3c(c2)OCO3)CC1	/	2	4	4%	-1.2
CC(C)(C)c1ccc(C(=O)NCC(=O)OCN2C(=O)c3ccccc3C2=O)cc1	3	0	-3	-9%	3.3

6 successive compounds already listed, for reference:
SMILES	YopH PTP inh	Arbovirus anti	Mtb betalactam	Mtb H37Rv	RecA intein inh	others
Cc1cc(C)c(NC2=NS(=O)(=O)c3ccccc32)c(C)c1	-1	9	-11	3%	1.3
COc1ccc(OCC(=O)N2CCN(c3nnc(-c4ccccc4)c4ccccc34)CC2)cc1	-41	-30	8	2%	7.9
Cc1cc(C)c(C(=O)N2CCCC(CNS(=O)(=O)c3cccs3)C2)o1 (stereo unspecified)	/	/	-14	/	4.8
Cc1ccc(C)c(OCCCCCn2ccnc2)c1	-26	-2	20	-10%	2.8
CCc1nc(CNC(=O)C2CCC(=O)N(CCc3cccc(F)c3)C2)no1 (stereo unspecified)	/	/	-2	/	-0.9
COc1ccc(CCNC(=O)CN2C(=O)NC(Cc3c[nH]c4ccccc34)C2=O)cc1 (stereo unspecified)	/	/	-1	/	-6.5

Continuation.
SMILES	YopH PTP inh	Arbovirus anti	Mtb betalactam	Mtb H37Rv	RecA intein inh	others
Fc1ccc(C2=CC(c3cccs3)n3nnnc3N2)cc1 (stereo unspecified)	/	/	5	-1%	-2.2
Cc1ccnn1CCC(=O)N1CCCC(N2CCN(c3cccc(Cl)c3)CC2)C1 (stereo unspecified)	/	/	-9	/	0.1
CCCC(=O)Nc1ccccc1NC(=O)CN(C)S(=O)(=O)c1ccccc1	-30	5	-1	-2%	-4.9
COc1ccccc1NC(=O)N1CCC(NC(=O)C2CCCCC2)CC1	/	/	-1	/	0.3
COc1ccc(Cl)cc1N=Cc1c(O)cc(C)oc1=O	-15	/	-11	0%	1.9
COc1ccc(CN(CC(=O)NCC2CCCO2)C(=O)CCC(=O)Nc2cc(C)ccn2)cc1 (stereo unspecified)	-30	12	/	-3%	1.5
N/C(=N\OC(=O)CCCc1ccccc1)c1ccc([N+](=O)[O-])cc1	-20	9	2	-1%	8.1
Clc1ccc(Cn2cc(Br)cn2)cc1Cl	-1	-5	7	0%	2.2
Oc1ccc(Br)cc1C=Nc1cccn2cc(-c3ccccc3)nc12	/	-3	0	-1%	-27
CCCSc1nc(-n2ncc(C#N)c2N)c2c3c(sc2n1)CCC(C)C3 (stereo unspecified)	-35	13	-5	9%	-3.6
COc1cccc(CNC(=O)C(=O)NCC2CCCN2S(=O)(=O)c2cc(C)ccc2C)c1 (stereo unspecified)	/	/	-10	/	3.3
CN1CCN(C(=O)CSc2nc(-c3cccs3)cc(-c3cccs3)c2C#N)CC1	-11	-31	3	2%	-12
CN1CCCC1CCNc1ccc2c(=O)c3ccccc3oc2c1 (stereo unspecified)	/	/	-1	/	i
COc1ccc(C(=O)NCc2nnc(SCC(=O)N3CCc4ccccc43)n2Cc2ccccc2)cc1	-5	2	-2	-4%	-3.3
O=C1CCCN1c1ccc(S(=O)(=O)Nc2cccnc2)cc1	/	0	0	-3%	-3.5
Cc1c(Cl)cccc1NC(=S)NC1CCCC1	/	/	-7	/	0.1
Cc1cccc(-n2c(SCC(=O)Nc3nnc(C)s3)nnc2-c2ccoc2C)c1	-19	4	6	-1%	0.5
CCOC(=O)c1c(NC(=O)CSc2nnc(-c3ccccc3)n2CC)sc(C(C)=O)c1C	-25	3	-7	5%	4.8
CCN(CC(=O)NCc1ccc(F)cc1)C(=O)c1ccc(C(=O)c2ccccc2)cc1	/	/	-2	/	0.1
COCCOC(=O)c1c(C)oc2ccc(OC(=O)c3ccc4c(c3)OCO4)cc12	-19	0	96	34%	-1.2
COc1ccc(C(C(=O)NCC2CCCO2)N(C(=O)CNC(=O)c2cccs2)c2ccccc2)cc1OC (stereo unspecified)	/	8	-4	-3%	0.4
CC[N+]12CCC(CC1)C(C(O)(c1ccccc1)c1ccccc1)C2 (stereo unspecified)	/	/	-5	-3%	-1.1
Cc1ccc(/C=N/n2c(C)cc(C)c(C#N)c2=O)o1	-28	3	4	-11%	-1.7
O=c1c(-c2ccc(Br)cc2)coc2c(CN3CCOCC3)c(O)ccc12	-32	-5	-3	-2%	-2.9
Cc1cc(O)c(/C=N/Nc2ccc(F)cc2)c(=O)o1	/	-25	-6	?	-2.7
CCN1CCCC1CNC(=O)c1ccc(CS(=O)(=O)c2ccccc2C)o1 (stereo unspecified)	-30	1	-13	-11%	-0.2
COc1ccccc1NC(=O)Nc1nc(CC(=O)Nc2cccc(F)c2)cs1	/	/	-4	/	8.2
CCOc1ccc(/C=N/n2nnnc2N)cc1OCC	/	/	0	/	5.0
O=C(N=C1SC2CS(=O)(=O)CC2N1c1ccccc1F)C1CCCCC1 (stereo unspecified)	/	/	6	/	-8.7
Cc1nn(C)c(C(=O)NN)c1Cl	/	13	-5	2%	0.3
CC(=O)Nc1ccc(-c2cc(N)n(-c3ccccc3)n2)cc1	/	/	-5	-6%	2.1
CCOc1ccc(Cc2nnc(SCC(=O)Nc3c(C)cccc3C)[nH]c2=O)cc1	/	/	-8	/	0.9
COc1cc(NC(=O)c2cccc(C)c2)c(OC)cc1NC(=O)CN1CCOCC1	/	-3	73	52%	0.1
CCCCNC(=O)Cn1nc(Cc2ccncc2)c2ccccc2c1=O	/	/	-4	/	4.0
COc1ccccc1CN1CN(S(=O)(=O)c2ccccc2)c2nc3ccccc3nc21	/	/	-4	3%	13
c1cncc(-c2nnc(SCc3cccc4ccccc34)o2)c1	-53	-21	-3	/	-0.3	Arbovirus anti repeat=-24
Cc1ccc(S(=O)(=O)N2CCC(C(N)=O)CC2)cc1C(=O)NC1CCCCC1	/	/	-3	/	0.6
O=C(CN1CCC(C(=O)c2ccc3c(c2)OCCO3)CC1)NCc1ccc(F)cc1	/	/	-4	/	1.5
CCOc1ccc(N2C(=O)C(CC(=O)Nc3ccccc3)N(Cc3ccccn3)C2=S)cc1 (stereo unspecified)	/	-12	23	17%	3.3
FC(F)C(F)(F)C(F)(F)C(F)(F)c1cc(-c2ccccc2)n[nH]1	-17	-28	-5	6%	-3.1
CCN1C[C@]2(CO)CC[C@H](OC)[C@@]34C5C[C@H]6[C@H](OC)C5[C@](O)(C[C@H]6OC)[C@@](O)(C(OC)C23)[C@@H]14 (stereo partly specified)	/	/	1	-11%	-0.8
CN1CCN(S(=O)(=O)c2ccc3c(c2)C(C)(C)C(=O)N3C)CC1	/	/	4	/	2.5
CN=C1S/C(=C\c2ccc(Cl)cc2)C(=O)N1C	/	/	1	/	6.2
COc1cccc(NC(=O)CNC(=O)[C@@H]2Cc3ccccc3CN2C(=O)OC(C)(C)C)c1	/	/	-6	/	-4.2
COc1ccc(OC)c(-n2c(CN3CCC(C(N)=O)CC3)nc3ccccc3c2=O)c1	-56	8	-5	-2%	-3.1
CCOc1ccc(S(=O)(=O)N2CCN(C(=S)NCC3CCCO3)CC2)cc1 (stereo unspecified)	/	/	-10	/	-1.0
